# eIF4H FP inh = human eIF4H binding inhibitors, primary screen, translation initiation inhibitor project, biochemical, uHTS, fluorescence polarization. 290,000 compounds, 0.94% hits. Eukaryotic translation initiation factor 4H (Homo sapiens), Q15056. inhibition, % at 35 µM. eIF4H fluorescence polarization binding assay;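 active = 50% or more with normal probe brightness, or confirmed in later tests; about a fifth of its hits are not listed in these tables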;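 note: calls also rest on retests at 20 µM and on dose response follow-up; 0% = protein and probe with vehicle and 100% = probe without protein; strong numbers were not always called active; many hits fall short of the cut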
# Rce1 inhib = yeast Rce1p protease inhibitors, primary screen, biochemical, fluorescence, cell-free homogeneous | yeast membranes, quenched prenylated peptide cleavage fluorescence | calls only | 290,000 compounds, 0.27% hits;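 active = fall in fluorescence gain of 50% or more versus controls, with final raw signal at or below 3038400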;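 note: plate controls were neutral control wells for no effect and wells lacking membranes for full effect; tested at 10 µM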
# MT1-MMP act inh = blockers of MT1-MMP proenzyme processing, primary screen, HT1080 RFP-PRO-GFP cells, GFP/RFP fluorescence. Matrix metalloproteinase-14 (Homo sapiens), P50281. GFP/RFP ratio fluorescence, overnight; percent of plate control window, DMSO zero. GFP/RFP ratio change, % at 20 µM. 360,000 compounds, 0.061% hits;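 active = GFP/RFP ratio change of at least 30% with cell ATP level not reduced by more than half and red fluorescence within 50% of control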; note: strong numbers were not always called active
#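 Compound: 20 µM single dose, 1% DMSO / System: HT1080 RFP-PRO-GFP cells / Controls: DMSO and RFP-L50D-GFP cell wells / Read-out basis: GFP/RFP fluorescence ratio / Schedule: overnight compound exposure at 37 °C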
# Yeast UUG start = modulators of yeast start codon fidelity, primary screen, whole organism, S. cerevisiae, single point, plate reader; 350,000 compounds, 0.13% hits; activity score, % at 18.7 µM; S. cerevisiae UUG-firefly luciferase reporter, luminescence/redox ratio; AID 602363, 2012;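 active = replicate mean at a twofold rise or more, about +100% in these data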;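 note: firefly luciferase made from a UUG start codon reports start codon fidelity; reporter light over untreated wells divided by growth signal over untreated wells; some hits fall short of that in this replicate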
# PABP polyA inh = PABP poly(A) RNA binding inhibitors, primary screen, biochemical, fluorescence polarization, uHTS | Polyadenylate-binding protein 1 (Homo sapiens), P11940 | inhibition, % at 35 µM | 290,000 compounds, 1% hits | AID 2014, 2009;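 active = 50% or more with normal probe brightness, or confirmed in later tests; about a fifth of its hits are not listed in these tables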;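 note: calls also rest on retests at 20 µM and on dose response follow-up; controls were probe without protein and protein plus probe with vehicle; some compounds called inactive have numbers as strong as hits; many hits fall short of the cut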
# Target sequence (P11940 whole entry, looked up): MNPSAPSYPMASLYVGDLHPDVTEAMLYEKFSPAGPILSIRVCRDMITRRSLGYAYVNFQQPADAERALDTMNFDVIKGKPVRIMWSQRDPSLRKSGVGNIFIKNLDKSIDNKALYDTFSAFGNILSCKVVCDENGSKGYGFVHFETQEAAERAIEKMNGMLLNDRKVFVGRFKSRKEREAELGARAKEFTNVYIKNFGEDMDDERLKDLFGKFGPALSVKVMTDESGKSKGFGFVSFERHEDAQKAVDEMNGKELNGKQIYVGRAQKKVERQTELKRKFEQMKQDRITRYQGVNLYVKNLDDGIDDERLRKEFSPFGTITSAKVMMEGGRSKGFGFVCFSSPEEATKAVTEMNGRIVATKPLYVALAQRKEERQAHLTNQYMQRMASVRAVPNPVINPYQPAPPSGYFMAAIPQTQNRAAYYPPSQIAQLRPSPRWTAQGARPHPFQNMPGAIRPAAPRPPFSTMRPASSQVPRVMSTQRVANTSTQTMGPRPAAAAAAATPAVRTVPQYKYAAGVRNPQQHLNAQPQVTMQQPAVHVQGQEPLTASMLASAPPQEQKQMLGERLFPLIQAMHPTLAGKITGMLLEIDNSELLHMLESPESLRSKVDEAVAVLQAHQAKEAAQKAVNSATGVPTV
# CSC inhib = cancer stem cell viability inhibitors, primary screen, luminescence; cancer stem cell-like cells viability; inhibition, % at 7.5 µM; 300,000 compounds, 1.1% hits; AID 2717, 2010;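 active = mean at 75% or more and at least half the replicates too; tested in HMLE shEcad cells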;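 note: 0% = median of negative and 100% = median of positive control wells; the first replicate is given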
# Env fusion inh = inhibitors of HIV-1 Env-driven cell-cell fusion, primary screen, HeLa-JRFL effector, CEM21 target cells, luciferase. inhibition, % at 12.3 µM. 360,000 compounds, 1.1% hits. AID 651610, 2012;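 active = mean replicate inhibition score of at least 50 and every replicate individually at or above 50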;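 note: 0% = plate neutral controls and 100% = maraviroc near 300 nM; one replicate is shown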
# MT1-MMP act inh RFP = recorded beside MT1-MMP act inh, whose call it bears; RFP signal change, %; measured here: RFP expression control read;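 0 = vehicle wells; hits needed this value within 50% of zero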
# * hit, by the source's call; i = inactive; nt = no result given; + = active, no number; & = joins results of further samples.
SMILES,eIF4H FP inh,Rce1 inhib,MT1-MMP act inh,MT1-MMP act inh RFP,Yeast UUG start,PABP polyA inh,CSC inhib,Env fusion inh
CCOC(=O)N1CCN(C(=O)c2c(Cl)cnn2C)CC1,7,i,1,-1,-12,-6,5,-25
CC(=O)CC(=O)Nc1nc(C)cc(C)n1,-2,i,4,1,nt,-9,-11,13
CC(C)(C)C(=O)O/N=C(\N)COc1cccc(Cl)c1,-7,i,1,3,nt,3,-7,-63
CSc1cccc(NC(=O)c2sc3nc4n(c(=O)c3c2C)CCC4)c1,nt,i,5,4,-2,nt,11,-28
COc1ccc(NC(=O)/C=C/C(=O)O)c(OC)c1,10,i,0,2,-11,16,-16,1
c1csc(-c2nnc(COc3ncnc4sccc34)o2)c1,13,i,1,6,-15,-2,-4,-8
COc1cccc(N=CC2=C(O)CCCC2=O)c1,3,i,4,4,nt,3,nt,4
O=C(Nc1ccncc1)c1ccccc1F,4,i,-9,-6,-24,-12,-2,nt
Cc1ccc(C(C(=O)NC2CCCC2)N(C(=O)c2csnn2)c2cccc(F)c2)o1 (stereo not given),-4,nt,-1,6,-19,-8,-16,7
CC(NC(=O)CN1CCN(c2cccc(Cl)c2)CC1)c1ccccc1 (stereo not given),-5,i,-1,-5,1,4,17,16
O=C(CSCc1ccc(F)cc1)Nc1nc2c(s1)CCCC2,-9,i,-1,-8,nt,-4,-3,nt
C=CCNC(=O)C1CC(=O)N(c2ccc(OCC(=O)Nc3ccc(C)cc3)cc2)C1 (stereo not given),-11,i,-4,-3,-19,0,7,nt
CCSc1ccccc1C(=O)N1CCCC1,-4,i,1,1,nt,-2,-4,8
Cc1cc(Br)ccc1NC(=O)CN(C)C(=O)C1CCN(C(=O)c2ccc(F)cc2)CC1,nt,i,10,-3,8,nt,nt,-9
CC1(C(=O)NS(=O)(=O)c2cccc(F)c2)CCN1C(=O)CCc1ccc(Cl)cc1Cl (stereo not given),nt,nt,-1,5,12,nt,nt,9
C[C@H]1CN([C@@H](C)CO)C(=O)CCCn2nncc2CO[C@@H]1CN(C)S(=O)(=O)c1ccc(-c2ccccc2)cc1,nt,nt,2,0,5&10,nt,nt,17
COc1ccc(CNC(=O)c2cc(COc3c(F)cccc3F)on2)cc1OC,-2,i,3,-2,nt,-8,4,-4
Clc1ncnc2scc(-c3ccc(Br)cc3)c12,16,i,0,-2,nt,9,12,0
CC(=O)c1c(-c2ccc(Cl)cc2)c2ccccc2[nH]c1=O,-8,i,1,-1,1,-7,-7,15
CC(=O)Oc1ccc2c(=O)c(/C=N/c3cc(=O)[nH]c(=S)[nH]3)coc2c1,42,i,-1,-5,-7,47,20,-9
Cc1nc2ccccc2c(=O)n1/N=C/c1ccc(O)cc1,-7,i,7,3,-10,8,-4,nt
COC(=O)c1c(C(=O)OC)c(-c2ccc(OC)cc2)n2c1CS(=O)C2 (stereo not given),-4,i,-2,0,-11,5,-3,-1
O=C(O)c1ccc(-c2ccccc2)[nH]1,-10,i,0,0,-10,4,-5,16
O=C(Nc1cccc(-c2cccc(F)c2)c1)C1CCN(CC2CCOC2)CC1 (stereo not given),2,i,4,1,-18,1,0,10
O=C(CSc1ccc([N+](=O)[O-])cc1)NNC(=O)c1ccccc1F,-13,i,-1,-2,-4,4,20,2
COc1ccc(S(=O)(=O)NCc2cccnc2)cc1,4,i,0,5,-10,-8,-12,14
CC(=O)c1c(NC(=O)C(C)C)nc(C)nc1-c1ccccc1,1,i,2,5,-13,8,-18,nt
CSc1ccc(NC(=O)NCCCN2CCN(c3ccccc3F)CC2)cc1,6,i,8,4,-11,-5,-4,nt
C#CCOC(=O)C(NC(=O)c1ccccc1)=C1CCCCC1,1,i,-4,-3,5,11,-5,nt
COc1ccc(CCNC(=O)Cn2nnc(-c3ccccc3F)n2)cc1OC,-7,i,-6,-1,nt,3,-8,nt
O=C1C(NS(=O)(=O)c2ccc(Cl)cc2)=C(N2CCCCC2)C(=O)c2ccccc21,-10,i,10,4,nt,-12,40,1
C(=C\c1ccccc1)/CSc1nnc(-c2ccccn2)n1Cc1ccco1,3,i,-6,-9,-14,9,52,nt
CCCn1c(N)c(N(CCOC)C(=O)COC(=O)COc2c(C)cc(C)cc2C)c(=O)[nH]c1=O,nt,nt,-2,4,4,nt,nt,-3
CC(C)(C)OC(=O)C[C@@H]1C/C=C\C[C@@H](CC(=O)NCCO)C(=O)NCCOC1=O,nt,nt,1,2,6,nt,28,-21
Cc1ccc(OCc2nc(-c3ccccn3)no2)cc1,2,i,-6,-4,-23,-6,19,nt
Cn1c(SCC(=O)Nc2cccc(F)c2)nnc1-c1cc2ccccc2o1,1,i,0,-1,-19,-7,nt,nt
C=CCC[C@H](Cc1ccc(F)cc1)C(=O)OC[C@H](C)NC(=O)[C@H](CC=C)CC(=O)N(CCO)Cc1ccccc1,nt,nt,0,-11,17,nt,-9,22
CCC(=O)Nc1ccc(C(=O)NNC(=O)COc2cc(C)ccc2C)cc1,-3,i,1,1,nt,0,-12,-2
Cc1cc(Br)ccc1SCC(=O)OCC(=O)NC(C)c1ccccc1 (stereo not given),0,i,3,4,nt,0,6,-24
Cc1ccc(NC(=O)[C@@H]2CCCN2S(=O)(=O)c2ccccc2F)cc1S(=O)(=O)N1CCOCC1,2,i,-4,-4,nt,16,-3,28
COC(=O)C(C)NC(=S)N1CCN(c2c(F)cc3c(=O)c(C(=O)O)cn(C4CC4)c3c2OC)CC1C (stereo not given),5,i,-8,-5,nt,4,-9,15
CN1CCN(CC(=O)Nc2nc3c(s2)CCCC3)CC1,4,i,0,1,-14,11,-19,-4
COc1ccc(-c2nnc3sc(COc4ccccc4)nn23)cc1,-6,i,-1,-1,-28,-4,-1,-18
CSc1nc(NC(C)(C)C)nc(Oc2ccc(=O)n(C)n2)n1,-10,i,nt,nt,-15,-3,-13,-53
COc1cc(CNCc2ccccc2)c(Br)cc1OC1CCCC1,2,i,-4,-15,9,-17,-14,-6
COc1ccc(OC)c(S(=O)(=O)NCCC(C)C)c1,-4,nt,1,4,5,-4,-11,0
Cc1cccc(NC(=O)C(CCC(N)=O)NC(=O)OCc2ccccc2)c1 (stereo not given),1,i,-1,2,-5,-1,-7,11
CC(=O)C1C(=O)C=C(c2cccs2)CC1c1ccccc1 (stereo not given),-5,i,-1,-1,-2,-1,-16,12
C/C(=N/NS(=O)(=O)c1cccc([N+](=O)[O-])c1)c1ccc2c(c1)OCO2,-12,i,-2,5,-16,-5,-5,10
CC(C)(C)NC(=O)C(c1ccncc1)N(C(=O)CNC(=O)c1ccco1)c1ccc(F)cc1 (stereo not given),-3,i,-3,-3,-19,6,-1,18
CCOC(=O)c1ccc2nc(C(F)(F)F)[nH]c(=O)c2c1,-8,nt,-2,4,40,13,8,nt
COC(=O)[C@]1(C)CCC[C@@]2(C)C3CC[C@]4(OC(C)=O)C[C@@]3(CCC21)CC4=NO (stereo not given in full),nt,nt,7,-1,-9,nt,9,13
CN=Cc1sc2ccccc2c1O,-13,i,-1,3,-12,-2,-10,nt
CSc1snnc1-c1ccccc1,27,i,2,1,nt,30,0,-22
CN1CC[C@@]2([C@@]34CCN(C)C3Nc3ccccc34)c3ccccc3NC12 (stereo not given in full),nt,i,2,4,-4,nt,17,nt
COc1ccc(C(CC(=O)Nc2cc([N+](=O)[O-])ccc2OC)c2ccccc2)cc1 (stereo not given),-7,i,-11,-5,10,0,12,79*
C/C(=N/OCC(=O)Nc1ccc(C)cc1C)c1cccs1,-3,i,0,-1,2,-8,-1,nt
Cc1cccc(NC(=O)c2cc[n+]([O-])cc2)c1C,-2,i,-1,-5,-18,0,-2,2
CC(C)(C)NC(=O)C(c1ccc(OCC(N)=O)cc1)N(C(=O)c1cccnc1)C1CC1 (stereo not given),0,i,7,7,-22,7,0,nt
CC1CCC/C(=C\Nc2ccccc2C(=O)O)C1=O (stereo not given),-3,+,0,9,-17,8,-8,-31

# Rewritten as labelled records: part of the list above.
C(=C\c1ccccc1)/CSc1nnc(-c2ccccn2)n1Cc1ccco1
- eIF4H FP inh: 3
- Rce1 inhib: i
- MT1-MMP act inh: -6
- MT1-MMP act inh RFP: -9
- Yeast UUG start: -14
- PABP polyA inh: 9
- CSC inhib: 52
- Env fusion inh: nt

CCCn1c(N)c(N(CCOC)C(=O)COC(=O)COc2c(C)cc(C)cc2C)c(=O)[nH]c1=O
- eIF4H FP inh: nt
- Rce1 inhib: nt
- MT1-MMP act inh: -2
- MT1-MMP act inh RFP: 4
- Yeast UUG start: 4
- PABP polyA inh: nt
- CSC inhib: nt
- Env fusion inh: -3

# Going on with the list:
SMILES,eIF4H FP inh,Rce1 inhib,MT1-MMP act inh,MT1-MMP act inh RFP,Yeast UUG start,PABP polyA inh,CSC inhib,Env fusion inh
Cn1c(N)c(C(=O)COC(=O)/C=C/c2ccccc2F)c(=O)n(C)c1=O,nt,nt,5,-1,-8,nt,3,16
COc1ccccc1OCc1ccc(C(=O)OCC2CCCO2)o1 (stereo not given),-3,i,4,5,-15,16,-2,nt
COC(=O)Cc1ccc(N(Cc2ccccc2F)S(=O)(=O)c2ccc(C)cc2)cc1,-9,i,-9,-10,nt,-4,nt,14
Cc1cc(NC(=O)COC(=O)C2CC(=O)N(c3ccccc3)C2)no1 (stereo not given),-10,nt,3,-1,-22,-8,-11,-8
CCOC(=O)CSC(=S)NC(=O)c1ccc(OC)cc1,-1,i,nt,nt,nt,-18,12,-6
Cc1ccc(CNC(=O)CN(CCc2ccccc2)S(C)(=O)=O)cc1,-7,i,4,1,nt,-10,7,4
CCOC(=O)c1c(NC(=O)C(C)S(=O)(=O)c2cn(CC)c3ccccc23)sc2c1CCCC2 (stereo not given),5,i,-4,-6,-2,0,11,33
NC(=O)C1CCN(c2ccc(C(F)(F)F)cc2[N+](=O)[O-])CC1,6,i,7,1,-16,2,-6,-24
CC(=O)Nc1ccc(N=c2cc([N+](=O)[O-])cc(Cl)n2O)cc1,-9,i,4,0,8,5,-3,-9
CCOC(=O)C1CCCN(S(=O)(=O)c2c(C)noc2C)C1 (stereo not given),-7,i,0,2,-11,5,-10,-27
COCC1CCN(C(=O)C2CCC(=O)N(C3CCCCCC3)C2)CC1 (stereo not given),-6,i,0,0,-11,0,-8,14
CCOC(=O)c1cnc2c(cnn2C)c1Oc1ccc(OC)cc1,0,i,-7,-3,nt,10,nt,17
COc1ccccc1NC(=S)NCc1ccc2c(c1)cc(C)n2C,0,i,41*,42*,-12,-3,-12,0
CN1C2=CC=CC=CC2=[N+](C)C12C=CC(=[N+]([O-])[O-])C=C2[N+](=O)[O-] (stereo not given),31,i,39*,-1.4*,nt,-2,-5,14
CCOc1ccc(S(=O)(=O)N2CCC(C(=O)N3CCN(Cc4ccccc4)CC3)CC2)cc1,4,i,1,-6,-1,5,-13,-2
N#CC1=C(S)N(c2ccc(F)cc2)C(c2ccco2)NC1=O (stereo not given),-9,i,1,1,nt,-8,-10,2
COCC(=O)N/N=C\c1ccccc1OC/C=C/c1ccccc1,2,i,-6,-6,-12,2,-13,-67
O=C(NC1CC1)c1ccc(CSCc2ccc(Cl)cc2)o1,nt,nt,-5,-15,-21,nt,nt,6
COc1ccccc1OCC(=O)N/N=C/c1cccc2cccnc12,14,nt,3,3,-15,7,-3,-5

# Bioassay records from PubChem.
